High-throughput results as filed in PubChem.
TRPML1 ag: agonists of human TRPML1 channel; activation, % (concentration not given with the values); 410,000 compounds, 0.12% hits; TRPML1-expressing cells, Ca2+ dye fluorescence, FDSS; host cell line not named in the record; reference of the full effect not given here; Q9GZU1; in the data active = activation above about 50%; inconclusive = about 30% to 50%; inactive = below about 30%; further: 0% is about no effect; the text of the record puts the active cut at 80%
Target sequence (Q9GZU1 whole entry, looked up): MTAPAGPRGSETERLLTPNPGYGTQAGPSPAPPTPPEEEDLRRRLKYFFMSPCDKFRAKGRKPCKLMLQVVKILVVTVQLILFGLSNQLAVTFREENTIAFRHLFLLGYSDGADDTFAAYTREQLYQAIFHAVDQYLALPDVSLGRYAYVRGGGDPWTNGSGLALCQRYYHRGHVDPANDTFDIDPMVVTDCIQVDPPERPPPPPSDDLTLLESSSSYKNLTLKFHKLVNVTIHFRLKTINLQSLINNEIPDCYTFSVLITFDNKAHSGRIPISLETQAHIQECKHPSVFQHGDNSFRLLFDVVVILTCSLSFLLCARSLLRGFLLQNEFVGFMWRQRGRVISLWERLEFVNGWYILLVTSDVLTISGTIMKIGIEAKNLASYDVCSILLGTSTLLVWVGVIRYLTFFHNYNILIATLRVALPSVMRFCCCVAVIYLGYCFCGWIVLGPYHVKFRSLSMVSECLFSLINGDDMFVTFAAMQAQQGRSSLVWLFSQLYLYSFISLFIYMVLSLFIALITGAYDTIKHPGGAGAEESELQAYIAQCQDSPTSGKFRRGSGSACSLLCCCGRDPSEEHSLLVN
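Kinetic FDSS Ca2+ read in Tet-induced TRPML1-DL cells (ABD Ca8 dye plus quencher, 45-90 min RT loading): baseline, then compound, then 110 s agonist window; EC80 agonist 54-4 at 4uM final added afterwards for a 110 s antagonist window.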
TRPV1 PAM: human TRPV1 potentiation; 320,000 compounds, 0.02% hits; Q8NER1; AID 540277; potentiation, % at 8.33 µM; TRPV1-expressing cells, Fluo-8 calcium influx, capsaicin EC20 potentiation; host cell line not named in the record; control for the full effect not named in the record; active means potentiation above 80%; inconclusive means 30% to 80%; inactive means below 30%; further: 0% is about no effect
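Cells expressing TRPV1 were dye-loaded with Fluo-8 and read kinetically: 10 s baseline, 3 min after compound (agonist portion), then 2 min after EC20 capsaicin (allosteric enhancer portion). Calcium-bound dye fluorescence at 480/520 nm.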
CtBP-E1A blk: inhibitors of CtBP/E1A interaction; AlphaScreen GST-E1A/His-CtBP binding, 1536-well; stronger effect = lower value; control for the full effect not named in the record; activity change, % (test concentration not listed); 340,000 compounds, 0.49% hits; AID 651724; in the data active means activity change below about -65%; inconclusive means about -30% to -65%; inactive means above about -30%; further: on the % scale 0 is the no-effect control and ±100 the full control effect
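Steps: dispense buffer (Tris pH 8.0, NaCl 300 mM, TCEP 1 mM, BSA, Tween 20); add 5X protein mix (GST-E1A, His-CtBP, 125 nM each); pin 23 nL compound; 2 h at 37 °C, dark; add 5X beads (50 ug/mL); 1 h; read.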
TRPML1 inh: inhibitors of human TRPML1 channel; Q9GZU1; TRPML1-inducible cells, Ca2+ dye fluorescence, FDSS; stronger effect = lower value; inhibition of EC80 agonist-evoked calcium signal; activity change, negative = inhibition, % (concentration not given with the values); 390,000 compounds, 0.02% hits; AID 624415; in the data active means activity change below about -50%; inconclusive means about -30% to -50%; inactive means above about -30%;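 further: stimulus is agonist 54-4 at its EC80 concentration; on the % scale 0 is the no-effect control and ±100 the full control effect; the text of the record puts the active cut at -80%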
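Tet-induced TRPML1-DL cells loaded with Ca8 no-wash calcium dye were read kinetically on FDSS. Compound addition was followed by EC80 agonist 54-4 (4 uM final); inhibition was read over 110 s.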
D2 PAM: positive allosteric modulators of human D2 dopamine receptor; DiscoveRx D2 beta-arrestin cells, luminescence, 90 min; 100% = 57 uM dopamine signal; potentiation, % (concentration not given with the values); AID 624464; P14416; 360,000 compounds, 0.23% hits; active = potentiation of 50% or more; inconclusive = 30% to 50%; inactive = 30% or less;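 further: tested on top of an EC20 dose of dopamine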
Target sequence (P14416 whole entry, looked up): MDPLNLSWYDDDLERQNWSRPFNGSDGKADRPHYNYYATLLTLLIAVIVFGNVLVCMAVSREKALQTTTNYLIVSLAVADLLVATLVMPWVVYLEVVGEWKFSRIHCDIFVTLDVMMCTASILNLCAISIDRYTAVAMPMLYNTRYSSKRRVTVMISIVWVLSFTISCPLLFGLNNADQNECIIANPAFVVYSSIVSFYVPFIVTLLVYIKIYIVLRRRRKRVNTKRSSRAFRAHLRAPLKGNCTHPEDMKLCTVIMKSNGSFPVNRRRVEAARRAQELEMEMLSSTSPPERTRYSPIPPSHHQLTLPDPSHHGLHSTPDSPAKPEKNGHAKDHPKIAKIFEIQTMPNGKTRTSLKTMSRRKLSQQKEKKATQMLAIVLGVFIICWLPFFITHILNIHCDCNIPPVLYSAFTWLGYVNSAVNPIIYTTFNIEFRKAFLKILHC
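PathHunter beta-arrestin assay in DiscoveRx D2 cells. Compounds were added with an EC20 of dopamine (50 nM final) for 90 min at 37 deg C. Luminescence was read 1 h after detection reagent, with 57 uM dopamine as the EC100 control.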
Six1-Eya2 inh: inhibitors of human Six1/Eya2 interaction. Q15475+O00167. AlphaScreen GST-Six1/His-Eya2 binding, biochemical; stronger effect = lower value; control for the full effect not named in the record. activity change, % (no concentration beside the values). 360,000 compounds, 0.56% hits; in the data active = activity change below about -65%; inconclusive = about -30% to -65%; inactive = above about -30%; further: on the % scale 0 is the no-effect control and ±100 the full control effect
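AlphaScreen with GST-Six1 and His-Eya2 (5X mix: 250 nM and 500 nM), glutathione donor and nickel acceptor beads; buffer 50 mM Tris pH 8.0, 300 mM NaCl, 1 mM TCEP; 1 h at 37 C in the dark.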
* hit, by the source's call; u = inconclusive; x = no result given.

smiles | TRPML1 ag | TRPV1 PAM | CtBP-E1A blk | TRPML1 inh | D2 PAM | Six1-Eya2 inh
O=C1CC23c4ccccc4N4C(=O)CC5OCC=C6CN1C2CC6C5C43 (stereo not drawn) | -0.4 | x | 15 | -8 | 7 | -2
c1cc2n(c1)-c1c(ccc3c1OCO3)CNC2c1ccc2c(c1)OCO2 (stereo not drawn) | 1.4 | 3 | -19 | -11 | -36 | u
O=C(CCc1nnc2ccc(NCc3ccccc3Cl)nn12)N1CCC2(CC1)OCCO2 | 0.4 | u | -1 | -2 | -14 | 0
C=C(COC(=O)CCC(=O)O)CC1CC(O)[C@]2(C)OC3CC4OC5C[C@]6(C)O[C@]7(C)CCC8OC9C[C@]%10(C)OC%11C(C)=CC(=O)OC%11CC%10OC9C[C@@H](C)C8OC7CC6O[C@]5(C)C/C=C\C4OC3CC2O1 (stereo partly drawn) | -0.3 | u | -1 | 25 | -52 | 5
O=C(COc1ccc2c3c(c(=O)oc2c1)CCC3)N1C[C@H]2C[C@@H](C1)c1cccc(=O)n1C2 | x | 5 | 0 | x | -10 | -2
C=CCn1c(O)c(C(C)=NC(C)c2ccccc2)c(=O)[nH]c1=O (stereo not drawn) | -0.8 | 0 | x | -4 | -15 | 8
CCOC(=O)c1c(C)n(Cc2ccccc2)c2ccc(OCC(O)Cn3nc(C)cc3C)cc12 (stereo not drawn) | 4.8 | 9 | -11 | 54 | -4 | -11
Cc1nn(Cc2ccccc2)c(C)c1C(=O)NCc1ccccc1 | -1.3 | 1 | 2 | -8 | -1 | 11
CCCNC1=C(C)C(=O)C2=C(C1=O)C(COC(N)=O)[C@]1(OC)C3NC3CN21 (stereo partly drawn) | -1.0 | 15 | -23 | 6 | 7 | -18
COC(=O)C1=C(c2ccc(S(C)(=O)=O)cc2)C[C@@H]2CC[C@H]1N2C(=O)NCCNC(C)=O | -0.6 | x | 0 | 8 | -4 | 4
CN1CC[C@]23c4c5ccc(O)c4OC2[C@H](O)C=CC3[C@H]1C5 (stereo partly drawn) | 0.1 | x | -17 | 4 | -10 | 1
CCOC(=O)c1c(NC(=O)C(c2ccccc2)c2ccccc2)sc2c1C1CCN2CC1 | 0.9 | 2 | -5 | 5 | -24 | -20
C=CCSc1nc2c(c(-c3ccsc3)c1C#N)CN(C)CC2 | -0.1 | 11 | -14 | -6 | -21 | -7
CC(C)CN(CC(C)C)C(=O)C1C2c3ccccc3C(c3ccccc32)C1C(=O)O (stereo not drawn) | 1.1 | -8 | x | -8 | -3 | 5
Clc1ccc2c(c1)C(c1ccccc1Cl)=NCc1nnc(Br)n1-2 | 0.9 | 5 | 1 | -11 | 0 | -4
S=C(NCCc1ccccc1)N1Cc2cc(N3CCCCC3)ccc2-n2nncc2C1 | 1.9 | x | -21 | -15 | x | -23
O=C(COc1ccccc1)N1CCN(CC2CC=CCC2)CC1 (stereo not drawn) | -0.1 | -36 | 17 | 6 | -24 | 2
Cc1ccc(C2C(=O)NC(=O)NC2=O)cc1 | -0.3 | x | -9 | 2 | -13 | 3
COc1cc(C2c3cc(O)c(OC)cc3CC3C(=O)OCC32)ccc1O (stereo not drawn) | x | x | 3 | x | -1 | 0
CCOc1ccc(CC2C(=O)NC(=O)N(c3ccc(CC)cc3)C2=O)cc1 (stereo not drawn) | 0.5 | 6 | -1 | -3 | -7 | 2
COc1cc(NC(=O)CN2C3CCC2CC(O)(c2cccnc2)C3)cc(OC)c1 (stereo not drawn) | -1.2 | 6 | -2 | 15 | -12 | 6
Fc1ccc(N2Cc3ccccc3-n3nncc3C2)cc1 | -0.6 | x | 1 | x | -12 | -5
COc1ccccc1NC(=O)COC(=O)c1cc(C)n(C2CC2)c1C | -0.4 | x | -23 | 10 | -2 | -9
Cc1cc(OC(=O)c2ccco2)c2c3c(c(=O)oc2c1)CCC3 | -0.2 | 7 | -4 | 6 | -7 | -5
CN(C)CC1Oc2ccccc2OC1(O)c1ccccc1 (stereo not drawn) | 13 | 11 | 2 | 8 | -20 | 1
CC1C(c2cccs2)=[N+]([O-])C(C)(C(=O)c2ccc(Cl)cc2)N1O (stereo not drawn) | 1.2 | x | -2 | 6 | -8 | -2
CCC(C)N1C(=O)/C(=C\c2ccc(N3CCCCCC3)cc2)C(=O)NC1=S (stereo not drawn) | -0.8 | 6 | 0 | 16 | -5 | 2
O=C(Nc1cccc(C(F)(F)F)c1)OC1CN2CCC1CC2 (stereo not drawn) | -0.3 | -27 | x | -2 | -8 | 7
CC(=O)OC1C2CCC1C(N1CCCC1)CC2 (stereo not drawn) | 0.0 | u | -1 | 7 | -1 | 15
CCN(CC)c1ccc(N=Cc2c(O)n(-c3ccccc3C)c(=O)[nH]c2=O)cc1 | 5.3 | u | -1 | 10 | 15 | -16
O=C(Cn1cnc2ccccc2c1=O)NCC(=O)N1CCC2(CC1)OCCO2 | 0.5 | 0 | 6 | 4 | 4 | 0
Cc1cc(C=C2C(=O)N(C)C(=S)N(C)C2=O)c(C)n1-c1ccncc1 | 2.2 | 3 | 11 | -7 | -7 | -2
O=C(CCN1CCCCC1)NCC(=O)Nc1ccc(Br)cc1C(=O)c1ccccc1 | 0.0 | 28 | 0 | 1 | -11 | 3
COc1ccc(-n2c(C)nc3cc(C(=O)N4CCC5(CC4)OCCO5)ccc32)cc1 | 0.7 | -5 | -1 | 6 | -20 | 6
C[C@]12CC[C@H](O)C[C@@H]1CC[C@H]1[C@H]3CCC(=O)[C@@]3(C)CC[C@@H]12 | -0.2 | x | -2 | 3 | -10 | -12
COc1ccc(OC(=O)N(C)C[C@@H]2OCc3cnnn3CCCC(=O)N([C@H](C)CO)C[C@H]2C)cc1 | -0.2 | x | 0 | 0 | -4 | 1
CN(C)C(=O)Oc1ccc(-c2cn3cc(Cl)ccc3n2)cc1 | -0.2 | 5 | 0 | -13 | 2 | 10
CCN(CC)c1ccc([N+](=O)[O-])c2cccnc12 | 0.1 | -17 | -24 | -21 | -16 | -25
CC1=Nc2cc(C(=O)N3CCC4(CC3)OCCO4)ccc2Sc2ccc(Cl)cc21 | 1.2 | -4 | 0 | 17 | -6 | -1
CC(Cc1ccccc1)NC(N)=O (stereo not drawn) | 0.8 | 29 | 4 | -10 | -5 | -2
COC(=O)C1=C(c2ccc(F)cc2OCc2ccccc2)C[C@@H]2CC[C@H]1N2C(=O)NC1CCN(Cc2ccccc2)CC1 | -0.4 | 2 | -12 | -6 | -17 | -20
COc1ccc(C(=O)C2CCCN(Cc3ccc(F)cc3F)C2)cc1F (stereo not drawn) | x | -13 | x | x | -2 | 0
CC(C)c1ccccc1NC1=NCCCS1 | 1.1 | -8 | 0 | 18 | -8 | 14
CC(=O)CC(C)(C)n1c[n+](C)nn1 | 0.0 | 3 | 10 | -22 | 4 | 0
COC(=O)C(O)(c1ccc(NC(=O)NC2CCCCC2)cc1)C(F)(F)F (stereo not drawn) | -0.1 | -3 | -10 | -12 | -21 | -7
O=C1NC(=O)C(=Cc2ccc(N3CCOCC3)o2)C(=O)N1 | 10 | 3 | 0 | -11 | 1 | 1
COc1ccc(O)c(C(C)(C)C)c1 | 0.8 | 4 | -5 | 12 | -8 | -7
NC(=S)/N=C/c1c(O)[nH]c(=O)[nH]c1=O | 0.6 | -1 | x | -13 | -4 | 3
CN(C)c1cc(N)c2c(n1)CCC2 (tested in a mixture with another compound) | -0.3 | -5 | 2 | -1 | -5 | -1
CC12CCC(O)CC1CCC1C2CCC2(C)C(C3=CC(=O)OC3)C(O)CC12O (stereo not drawn) | 0.2 | x | 0 | -16 | -13 | 5
CN(C)Cc1c[nH]c2ccccc12 | 0.1 | 6 | -3 | -11 | -12 | 2
Cn1cccc1/C=C1/C(=O)NC(=O)N(C(C)(C)C)C1=O | 0.5 | -12 | -2 | -13 | 0 | -3
CC1(C)OC1COc1c2occc2cc2ccc(=O)oc12 (stereo not drawn) | -1.0 | 4 | 2 | 2 | -24 | 1
COC(=O)C1=C(c2ccc(F)cc2OCc2ccccc2)C[C@@H]2CC[C@H]1N2C(=O)NCCO | 0.0 | -4 | x | 17 | -8 | -2
CCOC(=O)C(O)(c1ccc(N=c2ccccn2C)cc1)C(F)(F)F (stereo not drawn) | -0.1 | -4 | 12 | 18 | -6 | 18
CN(C)c1ccc(/C=C2/C(=O)NC(=O)N(CCc3ccc(F)cc3)C2=O)cc1 | -0.3 | -6 | x | -10 | -7 | 1
COC(=O)C1=C(c2ccccc2)C[C@@H]2CC[C@H]1N2C(=O)NCCNC(C)=O | -0.3 | x | -19 | -8 | -13 | 6
CCCCn1c(O)c(C(C)=Nc2c(C)n(C)n(-c3ccccc3)c2=O)c(=O)[nH]c1=O | 0.6 | u | -2 | -7 | -20 | 0
COc1ccccc1Sc1ccccc1CC(C)N (stereo not drawn) | 0.9 | 7 | -5 | 55 | -17 | 1
N#Cc1ccc(NC(=O)CN2CCCCCC2)cc1Cl | -0.5 | -6 | 5 | -4 | -5 | 2

Further results follow.
smiles | TRPML1 ag | TRPV1 PAM | CtBP-E1A blk | TRPML1 inh | D2 PAM | Six1-Eya2 inh
CCn1cc(C=C2C(=O)NC(=O)NC2=O)c2ccccc21 | -0.1 | 20 | -1 | 7 | 3 | 6
C[C@@H]1CN([C@H](C)CO)C(=O)CCCn2nncc2CO[C@H]1CN(C)C(=O)Oc1ccc2ccccc2c1 | -0.3 | x | 4 | -2 | 1 | 5
Cc1cc(C=C2C(=O)N(C)C(=O)N(C)C2=O)c(C)n1-c1ccccc1 | 2.3 | -1 | 13 | -11 | 2 | 8
COCCCN1Cc2ccccc2C1=N | 0.0 | 4 | 10 | 6 | -1 | 3
COC(=O)c1c(C)n(Cc2ccc3c(c2)OCO3)c2ccc(O)cc12 | 0.1 | -5 | -7 | -14 | -6 | -15
O=C(N/N=C1/CN2CCC1CC2)c1cccc(O)c1 | -0.1 | -8 | 2 | 39 | 0 | -1
COc1ccc(OC)c(NP(=O)(Oc2ccccc2)Oc2ccccc2)c1 | 3.4 | -17 | -11 | 22 | -2 | -18
COC(=O)C1=C(c2cccc(OC)c2OC)C[C@@H]2CC[C@H]1N2C(=O)NCCNC(C)=O | -0.8 | x | 5 | 0 | -1 | 6
Cc1cccc(CNCCc2c[nH]c3ccccc23)c1 | 1.2 | -19 | -19 | 31 | -8 | u
Cc1cc(Oc2ccc(C(F)(F)F)cc2[N+](=O)[O-])c2c3c(c(=O)oc2c1)CCC3 | -0.5 | 0 | -19 | -14 | -4 | -12
CCC(=O)N1CC(=O)Nc2ccc(F)cc2C1c1ccccc1 (stereo not drawn) | -0.7 | 8 | 2 | 10 | 1 | -2
Cc1cc(C=O)c(C)n1CC1CCCO1 (stereo not drawn) | 1.8 | 3 | 3 | 11 | -13 | 1
O=C1NC(=O)C(C2CCCCCC2)C(=O)N1 | 2.1 | x | -5 | 10 | -2 | -8
c1ccc2c(CNC3CCCCC3)c[nH]c2c1 | -0.5 | 14 | -8 | 12 | -15 | -6
O=C(O)c1ccc(-n2c(O)c(/C=C3\C=Nc4ccccc43)c(=O)[nH]c2=O)cc1 | 1.0 | 4 | 0 | -14 | -7 | -2

Not all compounds are listed; the hit share may differ from the screen's.
